Sa RN4220 lethal = growth inhibition of S. aureus RN4220, primary screen, OD600; inhibition, % (concentration not given with the values); hit rate 0.33% among 330,000; 16 h;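 active means z-score of -3 or lower and OD600 up to 0.18 on both plates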;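 further: plate controls were untreated cells for no effect and reference antibiotic for full effect; stock transfer was 100 nL into about 80 µL; one replicate is shown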
BJeLR viability = MLPCN primary cell-based screen for lethality selective to Ras in HRASV12 cells; inhibition, % (test concentration not listed); BJeLR (HRASV12) viability, CellTiter-Glo ATP luminescence, 48 h; reference of the scale not given here; AID 1554, 2009; hit rate 0.17% among 300,000;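 active means replicate mean above 50%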;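 further: 50 nL library stock added to about 25 µL; numbers are from one replicate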
Autofluor counter = counter-screen for toxin protease inhibitors: compound fluorescence; AID 624483; hit rate 3.1% among 360,000; fluorescence intensity (test concentration not listed); compound autofluorescence counterscreen, microsphere flow cytometry; active compounds read high;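 active means at least 3 SD above the mean of all compounds, about 16000 in these data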;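 further: 100 nL of 1 mM stock went into each well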
Mtb hypoxia inh = PubChem AID 1159583; fluorescence inhibition, % (no concentration beside the values); M. tuberculosis hypoxia-regulated fluorescent reporter, fluorescence; hit rate 0.1% among 300,000;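 active means 35 to 45% if threefold the growth effect, above 45% if 1.5-fold the growth effect; inactive means the rest, general growth blockers included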;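 further: wells of about 50 µL received 100 nL stock; 0% = vehicle wells and 100% = reference inhibitor wells; whole bacteria with a GFP reporter of the hypoxia response; strong numbers were not always called active; many hits fall short of the cut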
PrP 5UTR inh = inhibition of PrP 5' UTR reporter expression; cell-based PrP 5' UTR mRNA reporter, plate reader; inhibition, % (concentration not given with the values); hit rate 0.35% among 340,000; AID 488862, 2010;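 active means every replicate at 50% or more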;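 further: 0 = median of the neutral control wells; tested in H4 reporter cells; numbers are from one replicate; inactives centre near -14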
Sa ugtP lethal = growth inhibition of ugtP-null S. aureus, primary screen, RN4220 ugtP deletion, OD600 | 16 h; some inactives read as strong as hits | AID 1259309, 2017 | hit rate 0.54% among 330,000 | growth inhibition, % (test concentration not listed);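 active means z-score under -3 and OD600 up to 0.15 on both plates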;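 further: plate controls were untreated wells for no effect and antibiotic for full effect; wells of about 80 µL received 100 nL stock; the first replicate is given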
Mtb hypoxia inh growth = further read-out of Mtb hypoxia inh, marked with its call; growth inhibition, %; measured here: M. tuberculosis growth (absorbance);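 0% = vehicle and 100% = reference antibiotic; read after six days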
Starred values were filed as active, the others as inactive.

How did Cc1ccc(CSCC(=O)Nc2ccc(N3CCOCC3)cc2N2CCOCC2)cc1 do in these assays?
BJeLR viability: -5; Autofluor counter: 4434; PrP 5UTR inh: -10

Results for Cc1cccc(S(=O)(=O)Nc2cccc(-c3cn4ccsc4n3)c2)c1 ?
Sa RN4220 lethal: -2.0; BJeLR viability: 2; Autofluor counter: 3456; Mtb hypoxia inh: 9; PrP 5UTR inh: -10; Sa ugtP lethal: 85*; Mtb hypoxia inh growth: 2

What do the screens show for `COc1ccc(Cl)cc1NS(=O)(=O)N1CCOCC1`?
Sa RN4220 lethal: 2.8; BJeLR viability: -15; Autofluor counter: 6186; Mtb hypoxia inh: 3; PrP 5UTR inh: -11; Sa ugtP lethal: 1; Mtb hypoxia inh growth: -5

Results for Cc1cc(C)c(C(=O)N2CCCC(Nc3ccc(F)cc3)C2)o1 (stereo unspecified) ?
Sa RN4220 lethal: 2.0; BJeLR viability: -1; Autofluor counter: 5224; Mtb hypoxia inh: -2; PrP 5UTR inh: -20; Sa ugtP lethal: 1; Mtb hypoxia inh growth: -6

How did CN(Cc1ccccc1)c1ccc(C(CC(N)=O)NC(=O)c2ccc(Br)cc2)cc1[N+](=O)[O-] (stereo unspecified) do in these assays?
Sa RN4220 lethal: -2.0; BJeLR viability: 4; Autofluor counter: 4220; Mtb hypoxia inh: -1; PrP 5UTR inh: -19; Sa ugtP lethal: 13; Mtb hypoxia inh growth: 10

How did Nc1c(-c2ccccc2)n[nH]c1-c1ccccc1 do in these assays?
Sa RN4220 lethal: 2.2; BJeLR viability: 3; Autofluor counter: 23500*; Mtb hypoxia inh: 5; PrP 5UTR inh: -98; Sa ugtP lethal: -12; Mtb hypoxia inh growth: 1

How did COc1ccc(OC)c(-c2cc(C(F)(F)F)c3c(n2)sc2c(O)cc(=O)[nH]c23)c1 do in these assays?
Sa RN4220 lethal: 9.0; BJeLR viability: 13; Autofluor counter: 2303; Mtb hypoxia inh: 5; PrP 5UTR inh: -21; Sa ugtP lethal: 13; Mtb hypoxia inh growth: 4

How did CCn1c(C)nc2cc(C(=O)NN=C(C)c3ccc(OC)cc3O)ccc21 do in these assays?
Sa RN4220 lethal: 4.0; Mtb hypoxia inh: -7; Sa ugtP lethal: 1; Mtb hypoxia inh growth: 5

Results for Cc1ccccc1Nc1nnc(SCC(=O)c2c(N)n(C3CC3)c(=O)[nH]c2=O)s1 ?
Sa RN4220 lethal: 4.5; Autofluor counter: 6028; Mtb hypoxia inh: 11; PrP 5UTR inh: -17; Sa ugtP lethal: 11; Mtb hypoxia inh growth: 2

How did CC(=O)C[C@H](O)CC(=O)[C@H]1OC(=O)[C@H](C)CCCCc2ccccc21 do in these assays?
Sa RN4220 lethal: 5.2; Autofluor counter: 3721; Mtb hypoxia inh: -11; PrP 5UTR inh: 66*; Sa ugtP lethal: 7; Mtb hypoxia inh growth: 10

Results for COCC(=O)Nc1ccccc1-c1ccccc1 ?
Sa RN4220 lethal: -0.3; BJeLR viability: -1; Autofluor counter: 4179; Mtb hypoxia inh: 3; PrP 5UTR inh: -4; Sa ugtP lethal: 0; Mtb hypoxia inh growth: 2

How did COc1ccc(CNC(=O)CCC(=O)N2CCN(S(=O)(=O)c3ccc(Cl)cc3)CC2)cc1 do in these assays?
Sa RN4220 lethal: 3.5; BJeLR viability: 4; Autofluor counter: 3066; Mtb hypoxia inh: 12; PrP 5UTR inh: -23; Sa ugtP lethal: 0; Mtb hypoxia inh growth: -3

What do the screens show for `COc1ccc(CCNS(=O)(=O)c2ccc3c(c2)CCN3C(=O)CCC(=O)O)cc1OC`?
Sa RN4220 lethal: 1.9; BJeLR viability: 5; Autofluor counter: 11503; Mtb hypoxia inh: -3; PrP 5UTR inh: -22; Sa ugtP lethal: 4; Mtb hypoxia inh growth: 6

What do the screens show for `OC(COCc1ccccc1)CN1CCN(c2ccccc2F)CC1` (stereo unspecified)?
Sa RN4220 lethal: 2.7; BJeLR viability: 2; Autofluor counter: 22811*; Mtb hypoxia inh: 12; PrP 5UTR inh: -9; Sa ugtP lethal: 3; Mtb hypoxia inh growth: 4

How did CC(OC(=O)CCN=C1NS(=O)(=O)c2ccccc21)C(=O)Nc1ccc(N(C)C)cc1 (stereo unspecified) do in these assays?
BJeLR viability: 4; Autofluor counter: 5280; PrP 5UTR inh: -10

How did CN(Cc1ccccc1)S(=O)(=O)c1cccc2nsnc12 do in these assays?
Sa RN4220 lethal: 6.6; BJeLR viability: 3; Autofluor counter: 3520; Mtb hypoxia inh: 7; PrP 5UTR inh: -24; Sa ugtP lethal: 8; Mtb hypoxia inh growth: 8

Results for COC(=O)[C@]1(C)CCC[C@@]2(C)C3CC[C@@]4(C)C[C@]3(CC[C@H]12)C[C@H]4O (stereo partly specified) ?
Sa RN4220 lethal: 8.7; BJeLR viability: 4; Autofluor counter: 3830; Mtb hypoxia inh: 0; PrP 5UTR inh: -16; Sa ugtP lethal: -3; Mtb hypoxia inh growth: 7

Results for Cc1ccccc1C(=O)N1CCC(C(=O)Nc2nc3ccc(F)cc3s2)CC1 ?
Sa RN4220 lethal: 3.6; BJeLR viability: -12; Mtb hypoxia inh: 10; PrP 5UTR inh: -20; Sa ugtP lethal: 4; Mtb hypoxia inh growth: 7

Results for CC1CC(C)(C)CC2(C1)NC(=O)N(CC(=O)NCc1ccccc1F)C2=O (stereo unspecified) ?
Sa RN4220 lethal: 0.2; BJeLR viability: 1; Autofluor counter: 5007; Mtb hypoxia inh: 12; PrP 5UTR inh: -30; Sa ugtP lethal: 5; Mtb hypoxia inh growth: 2

Results for O=C(NC1CCCCC1)NC1CC2CCC(C1)N2C(=O)NCc1ccccc1 (stereo unspecified) ?
Sa RN4220 lethal: -2.1; BJeLR viability: 15; Mtb hypoxia inh: -4; Sa ugtP lethal: -2; Mtb hypoxia inh growth: -8

How did C#CCN(C(=O)c1ccc(OC2CCN(Cc3ccccn3)CC2)cc1)C1CCCCC1 do in these assays?
Sa RN4220 lethal: 3.6; BJeLR viability: -5; Autofluor counter: 6348; Mtb hypoxia inh: 7; PrP 5UTR inh: 0; Sa ugtP lethal: 2; Mtb hypoxia inh growth: 14

What do the screens show for `CCN(CC(=O)Nc1c(F)cccc1F)C(=O)CN1C(=O)c2ccccc2C1=O`?
Sa RN4220 lethal: 0.9; BJeLR viability: -4; Mtb hypoxia inh: 5; PrP 5UTR inh: -14; Sa ugtP lethal: 8; Mtb hypoxia inh growth: 2

What do the screens show for `CC(C)c1nc(SCC(=O)Nc2c[nH]c(=O)[nH]c2=O)c2cnn(-c3ccccc3)c2n1`?
Sa RN4220 lethal: -3.0; BJeLR viability: 0; Autofluor counter: 3595; Mtb hypoxia inh: 8; PrP 5UTR inh: -17; Sa ugtP lethal: -7; Mtb hypoxia inh growth: 2

How did COc1cccc(NC(=O)c2ccccc2SC)c1 do in these assays?
Sa RN4220 lethal: -4.0; BJeLR viability: 4; Autofluor counter: 10910; Mtb hypoxia inh: 7; PrP 5UTR inh: -14; Sa ugtP lethal: 1; Mtb hypoxia inh growth: 3

How did CCS(=O)(=O)N1CCC(C(=O)NCC2CCCO2)CC1 (stereo unspecified) do in these assays?
Sa RN4220 lethal: 3.6; BJeLR viability: 0; Autofluor counter: 9167; Mtb hypoxia inh: 4; PrP 5UTR inh: -12; Sa ugtP lethal: 1; Mtb hypoxia inh growth: -1

What do the screens show for `O=C(CSc1nnc(SCc2cccc3ccccc23)s1)N/N=C/C=C/c1ccccc1[N+](=O)[O-]`?
BJeLR viability: 1; Autofluor counter: 2036; PrP 5UTR inh: 2

How did CC(=O)Nc1ccc(S(=O)(=O)N(C)CC(=O)OCC(=O)NCc2ccco2)cc1 do in these assays?
Sa RN4220 lethal: 3.5; BJeLR viability: 1; Mtb hypoxia inh: 1; PrP 5UTR inh: -17; Sa ugtP lethal: 7; Mtb hypoxia inh growth: -6

How did COc1ccc(NC(=O)c2ccc(Oc3ncccn3)cc2)cc1 do in these assays?
Sa RN4220 lethal: 1.7; BJeLR viability: -1; Autofluor counter: 3341; Mtb hypoxia inh: 4; PrP 5UTR inh: 8; Sa ugtP lethal: 2; Mtb hypoxia inh growth: 7

What do the screens show for `COc1ccc(N(CC(=O)Nc2ccccc2C(=O)NCc2ccco2)S(C)(=O)=O)cc1`?
Sa RN4220 lethal: 0.8; BJeLR viability: -4; Autofluor counter: 22786*; Mtb hypoxia inh: -7; PrP 5UTR inh: -25; Sa ugtP lethal: 0; Mtb hypoxia inh growth: 9

What do the screens show for `CCCCC(CC)C1OCC(C[N+]2(C)CCOCC2)O1` (stereo unspecified)?
Sa RN4220 lethal: 1.9; BJeLR viability: -1; Autofluor counter: 10891; Mtb hypoxia inh: -1; PrP 5UTR inh: -22; Sa ugtP lethal: 10; Mtb hypoxia inh growth: 3

What do the screens show for `Cc1cc(N(C)C)c(C#N)c(N2CCOCC2)n1`?
Sa RN4220 lethal: -0.4; BJeLR viability: 0; Autofluor counter: 5337; PrP 5UTR inh: -15; Sa ugtP lethal: 0

Results for CCN1CCN(Cc2ccccc2NC(=O)Nc2ccc(C)cc2)CC1 ?
Sa RN4220 lethal: 0.6; BJeLR viability: -5; Autofluor counter: 5067; PrP 5UTR inh: -77; Sa ugtP lethal: 2

What do the screens show for `CN(CCCCC(=O)C=NO)Cc1ccccc1` (tested in a mixture with another compound)?
Sa RN4220 lethal: 8.4; Mtb hypoxia inh: 18; Sa ugtP lethal: -6; Mtb hypoxia inh growth: 11

What do the screens show for `CCN(Cc1ccncc1)Cc1cn[nH]c1-c1cc(OC)c(OC)c(OC)c1`?
Sa RN4220 lethal: 0.8; BJeLR viability: -1; Autofluor counter: 4210; Mtb hypoxia inh: 10; PrP 5UTR inh: -8; Sa ugtP lethal: 0; Mtb hypoxia inh growth: -1

Results for CC(C)C1CC(CCN2CCCCC2)(c2ccccc2)CCO1 (stereo unspecified) ?
Sa RN4220 lethal: 0.6; BJeLR viability: 4; Autofluor counter: 4911; Mtb hypoxia inh: 11; PrP 5UTR inh: -54; Sa ugtP lethal: -1; Mtb hypoxia inh growth: 14

Results for Cc1cc(NC(=O)CSc2nccn2C)n(-c2ccccc2)n1 ?
Sa RN4220 lethal: 3.0; BJeLR viability: -5; Mtb hypoxia inh: -7; PrP 5UTR inh: -9; Sa ugtP lethal: 2; Mtb hypoxia inh growth: 0

Results for O=C(NCc1ccc(OC(F)(F)F)cc1)C1CC(c2ccccc2[N+](=O)[O-])=NO1 (stereo unspecified) ?
BJeLR viability: -4; Autofluor counter: 3696; PrP 5UTR inh: -22

What do the screens show for `CC(=O)c1cccc(CN2CCN(Cc3ccc(C)cc3)C(CCO)C2)c1` (stereo unspecified)?
Sa RN4220 lethal: 11; BJeLR viability: -14; Autofluor counter: 4370; Mtb hypoxia inh: 12; PrP 5UTR inh: -14; Sa ugtP lethal: 4; Mtb hypoxia inh growth: 5

What do the screens show for `CN1CC(c2ccccc2Cl)C2(COc3ccccc3C2=O)C12C(=O)Nc1ccccc12` (stereo unspecified)?
Sa RN4220 lethal: -1.7; BJeLR viability: -4; Autofluor counter: 20126*; Mtb hypoxia inh: -5; PrP 5UTR inh: -9; Sa ugtP lethal: -28; Mtb hypoxia inh growth: 9

How did CCN(CC(=O)Nc1ccc(OC)c(Cl)c1)CC(=O)NC(C)C do in these assays?
Sa RN4220 lethal: -1.8; BJeLR viability: -11; Autofluor counter: 4156; Mtb hypoxia inh: 4; PrP 5UTR inh: -14; Sa ugtP lethal: 1; Mtb hypoxia inh growth: -1

Results for Cc1cccc(NC(=O)CCC(=O)NN=Cc2cc([N+](=O)[O-])ccc2O)c1 ?
Sa RN4220 lethal: 94*; Mtb hypoxia inh: 5; Sa ugtP lethal: 84*; Mtb hypoxia inh growth: 7

Filtered by structure: the entries above containing a furan ring, fused or not
Results for Cc1cc(C)c(C(=O)N2CCCC(Nc3ccc(F)cc3)C2)o1 (stereo unspecified) ?
Sa RN4220 lethal: 2.0; BJeLR viability: -1; Autofluor counter: 5224; Mtb hypoxia inh: -2; PrP 5UTR inh: -20; Sa ugtP lethal: 1; Mtb hypoxia inh growth: -6

How did CC(=O)Nc1ccc(S(=O)(=O)N(C)CC(=O)OCC(=O)NCc2ccco2)cc1 do in these assays?
Sa RN4220 lethal: 3.5; BJeLR viability: 1; Mtb hypoxia inh: 1; PrP 5UTR inh: -17; Sa ugtP lethal: 7; Mtb hypoxia inh growth: -6

What do the screens show for `COc1ccc(N(CC(=O)Nc2ccccc2C(=O)NCc2ccco2)S(C)(=O)=O)cc1`?
Sa RN4220 lethal: 0.8; BJeLR viability: -4; Autofluor counter: 22786*; Mtb hypoxia inh: -7; PrP 5UTR inh: -25; Sa ugtP lethal: 0; Mtb hypoxia inh growth: 9

High-throughput results from PubChem BioAssay.
